# Bioassay records: PubChem BioAssay, National Center for Advancing Translational Sciences (NCATS)
# miR-21 FLuc – raises the signal of a miR-21 reporter; HeLa miR-21 FLuc reporter, luciferase, 48 h; 340,000 tested, under 10 active; Potency, µM (highest dose often 38.3 µM), for the others: top-dose reporter change, positive = more light; active = well fitted rising curve with a large enough effect; inconclusive = small, poorly fitted or top-dose-only effect; inactive = no such curve, though single readings can be large or run the other way;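 also: % of control where 0% means no effect; miR-21 action dims this reporter so a rising signal means less miR-21 action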
#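 Luminescence from a firefly luciferase reporter carrying a miR-21 binding site downstream, stably expressed under a CMV promoter in HeLa cells that make miR-21 endogenously, reports miRNA modulation after 48 h compound exposure up to approximately 40uM final.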
# * marks the source's active call; other numbers are inactive results; ? = inconclusive; [ ] = dose if it differs, or a comment. The list is partial; count on the stated rates, not on these rows.
canonical_smiles | miR-21 FLuc
CC(C)(C)c1ccc(-c2nc(NC(=O)CSc3ncnc4sc5c(c34)CCCC5)ns2)cc1 | -8%
O=C(COc1ccccc1Cl)Nc1ccc2oc(-c3ccccc3F)nc2c1 | -10%
COc1cccc(CNc2nc3c(-c4ccccc4)nnn3c3ccccc23)c1 | -12%
COc1ccc2c(C)c(CCC(=O)NCc3ccc(C)cc3)c(=O)oc2c1 | -9%
COC(=O)c1ccc(CSc2nnc3ccc4ccccc4n23)cc1 | -41%
CCOc1cccc2cc(-c3nc(-c4ccc(Cl)cc4)c(C)s3)c(=O)oc12 | 2%
CC(C)(C)c1ccc(C(=O)NCCc2csc3nc(-c4ccccc4F)nn23)cc1 | 7%
CCOC(=O)C1(C)C=C(Nc2ccc(OC)cc2)C(=O)N1c1ccccc1 (centres undefined) | -30%
CCC(C(=O)OCc1cc(=O)n2nc(C)sc2n1)c1ccccc1 (centres undefined) | -11%
COc1ccc(CC(=O)Nc2ccc(-c3nc4ccccc4s3)c(C)c2)cc1 | -29%
COc1cccc(CNC(=O)CN2C(=O)CCc3cc(S(=O)(=O)N4CCOCC4)ccc32)c1 | -8%
COc1cc2c(cc1OC)C(c1ccc(F)cc1)N(c1cccc(C#N)c1)C(=O)C2 (centres undefined) | -1%
COc1cccc(CNC(=O)CN(c2ccc(C(C)C)cc2)S(=O)(=O)c2c(C)n[nH]c2C)c1 | 15%
Cc1cc(C)cc(NC(=O)CN2C(=O)CSc3ccc(S(=O)(=O)N(C)C)cc32)c1 | -8%
Cc1ccc(Cn2c3ccccc3c3cnn(CC(=O)N4CCCCCC4)c(=O)c32)cc1 | 2%
COc1ccc(CCNC(=O)C(=O)Nc2ccccc2F)cc1 | -12%
O=C(CC1N=C2c3ccccc3N=C(SCC(=O)Nc3ccc(F)cc3)N2C1=O)NCc1cccs1 (centres undefined) | 2%
CCc1ccccc1NC(=O)c1ccc(F)c(S(=O)(=O)NC2CCCCCC2)c1 | -3%
COc1ccc(CNC(=O)C2CCN(c3nnc(-n4c(C)ccc4C)s3)CC2)c(OC)c1 | -1%
Cc1ccccc1Nc1ncnc2c1c(-c1ccccc1)cn2-c1ccc(F)cc1 | -7%
COc1ccc(CC(=O)NC2CC(=O)N(c3cccc(F)c3)C2)cc1OC (centres undefined) | 6%
CCOC(=O)C1CCN(C(=O)c2nn(-c3ccc(C)cc3)c(=O)c3c2c2ccccc2n3C)CC1 | -2%
CCSc1nc2c([nH]c3ccccc32)c(=O)n1-c1cccc(OC)c1 | 28%
COc1ccccc1CNC(=O)C(C)n1c(=O)cc(-c2ccccc2)c2c(C)nn(C)c21 (centres undefined) | 2%
CCCNC(=O)c1ccc2c(c1)N=C(C)c1c(C)ccc(C)c1S2 | ?
CCOc1ccc(NC(=O)c2cnn3c2NC(c2cccc(OC)c2)=CC3c2ccccc2)cc1 (centres undefined) | -2%
Cc1ccc(-c2nc3sc(CCNS(=O)(=O)c4cc(F)ccc4F)c(C)n3n2)cc1 | 18%
COc1ccccc1NC(=O)CN1C(=O)CSc2ccc(S(=O)(=O)N3CCCC3)cc21 | 3%
Cc1ccc(C)c(CSc2nc3c([nH]c4ccccc43)c(=O)n2C)c1 | 0%
Cc1cccc(-n2ncc3c(NC4CCCC4)ncnc32)c1 | 3%
CCOc1ccccc1N(C)C(=O)Cn1nc(Cc2cccnc2)c2ccccc2c1=O | 5%
Cc1cccc(N2CCN(C(=O)c3cn(C4CCCCC4)c(=O)c4c3c3ccccc3n4C)CC2)c1C | 23%
Cc1ccc(CNC(=O)c2cc(S(=O)(=O)N3CCCCC3)cn2C)cc1 | ?
C=C(C)Cn1c(=O)c2c(nc3n2CCN3c2ccc(F)cc2)n(C)c1=O | -9%
CCCS(=O)(=O)N1CC(=O)N(c2ccc(Cl)cc2C)C(C)(C(=O)NC2CCCC2)C1 (centres undefined) | -4%
CCCOc1cccc(C(=O)N2CCCCC2CCN2CCCCC2)c1 (centres undefined) | 0%
Clc1ccccc1CNc1ncnc2c1nc1n2CCCC1 | 20%
COc1cccc(NC(=O)CSc2nc(=O)n(Cc3ccco3)c3c2CCC3)c1 | -3%
CC(=O)Nc1ccc(S(=O)(=O)NCC2CCC(C(=O)NCCN(CC(C)C)CC(C)C)CC2)cc1 (centres undefined) | -3%
COc1cccc(CN2C(=O)c3ccccc3Sc3ccc(C(=O)OCc4ccco4)cc32)c1 | -6%
Cc1oc2c(cc(NS(=O)(=O)c3ccc(F)cc3)c3ccccc32)c1C(=O)OCc1ccccc1 | -3%
CCOc1ccc(NC(=O)C(=O)NCCc2csc3nc(-c4ccccc4F)nn23)cc1 | -2%
CCC1CCCCN1CCCNC(=O)c1ccc2c(c1)N(Cc1cccc(C)c1)C(=O)c1ccccc1S2(=O)=O (centres undefined) | 2%
CCOC(=O)c1cccc(NC(=O)c2cnn(-c3ccccc3)c2-n2cccc2)c1 | 1%
CC(Oc1ccc(Br)cc1)C(=O)N(Cc1nc(-c2ccccc2)no1)C(C)C (centres undefined) | 30%
Cc1cccc(N2CCN(C(=O)c3ccc4c(c3)N(Cc3ccccc3F)C(=O)c3ccccc3S4=O)CC2C)c1 (centres undefined) | 28%
O=c1c2ccccc2n(Cc2cccc(Cl)c2)c(=O)n1CCc1ccccc1 | -6%
COc1ccc(N(C(=O)c2cccc(C)c2)S(=O)(=O)c2ccc(Cl)cc2)cc1 | 12%
CCN1C(=O)c2ccccc2S(=O)c2ccc(C(=O)NCc3ccccc3OC)cc21 (centres undefined) | -7%
COc1cc(OC)c(NC(=O)CC(c2cccs2)N2Cc3ccccc3C2=O)cc1Cl (centres undefined) | 1%
Cc1ccc(NC(=O)CCN2CCN(CCO)CC2)cc1C | -5%
Cc1ccc2nc(COc3ccc(NC(=O)COc4ccccc4F)cc3)cc(=O)n2c1 | -4%
COc1ccccc1NC(=O)C1=C(C)Nc2nc(CCCO)nn2C1c1cccc(O)c1 (centres undefined) | 0%
CCOC(=O)c1c(NC(=O)CSc2cn(CCNC(=O)c3ccc(OCC)cc3)c3ccccc23)sc2c1CCC2 | 9%
CCOC(=O)CSc1nnc2n(-c3ccccc3)c(=O)c3c4c(sc3n12)COC(C(C)C)C4 (centres undefined) | -1%
Cc1ccc(CNC(=O)c2nc(SCc3ccccc3C)ncc2Cl)cc1 | 3%
Cc1ccc(S(=O)(=O)Cc2nc(-c3ccc(C(=O)NCc4ccccc4C)cc3)oc2C)cc1 | 7%
Cc1ccc(-n2c(=O)[nH]c3cc(C(=O)NCc4ccccc4)ccc3c2=O)cc1 | -2%
CCCC(=O)N1c2nc(-c3ccco3)nn2C2(CCCCC2)[C@@H]2CCCC[C@@H]21 | -1%
COc1cccc(C(=O)Nc2ccccc2-c2nnc(-c3cc(OC)ccc3Br)o2)c1 | 2%

# 6 compounds out of the list above, ordered by the number in miR-21 FLuc, rising:
structure | miR-21 FLuc
C=C(C)Cn1c(=O)c2c(nc3n2CCN3c2ccc(F)cc2)n(C)c1=O | -9%
Cc1ccc2nc(COc3ccc(NC(=O)COc4ccccc4F)cc3)cc(=O)n2c1 | -4%
COc1cccc(NC(=O)CSc2nc(=O)n(Cc3ccco3)c3c2CCC3)c1 | -3%
CCOc1ccc(NC(=O)C(=O)NCCc2csc3nc(-c4ccccc4F)nn23)cc1 | -2%
CCCOc1cccc(C(=O)N2CCCCC2CCN2CCCCC2)c1 (centres undefined) | 0%
Clc1ccccc1CNc1ncnc2c1nc1n2CCCC1 | 20%

# Other records follow.
molecule	miR-21 FLuc
CCc1cccc(NC(=O)Cn2c(=O)n(CCc3ccc(OC)c(OC)c3)c(=O)c3ccccc32)c1	-5%
Cc1nnc(N2CCN(c3ccccc3)CC2)c2c1nnn2Cc1ccc(F)cc1	0%
COc1ccccc1Cn1cc(C(=O)c2ccc(F)cc2)c(=O)c2cc3c(cc21)OCO3	-2%
Cc1ccc(C)c(-c2[nH]c3c(c2-c2c(-n4cccc4)n(C)c(=O)n(C)c2=O)c(=O)n(C)c(=O)n3C)c1	-8%
CCS(=O)(=O)c1ncc(N(Cc2ccco2)Cc2sccc2C)c(C(=O)Nc2cc(C)ccc2C)n1	2%
COc1ccc(Cl)cc1NC(=O)CSC1=Nc2ccccc2C2=NC(CC(=O)NCc3ccc4c(c3)OCO4)C(=O)N12 (centres undefined)	15%
CCOc1ccc(NC(=O)N(Cc2c[nH]c3ccccc23)C2CCCCCC2)cc1	-39%
COc1ccc(NC(=O)c2ccco2)cc1NC(=O)COc1cccc(C)c1C	-7%
Cc1[nH]c2ccc(C(=O)N3CCN(c4ccccc4F)CC3)cc2c1C	-11%
CCOc1ccc(NC(=O)c2ncoc2-c2ccco2)cc1	-45%
COc1cc2c(cc1OC)C1O[C@](CCCCN3C(=O)c4ccccc4C3=O)(C2)OC2=C1C(=O)CCC2	0%[7.66 µM]
CCC1=Nc2cc(C(=O)NC3CCCC3)ccc2Sc2ccc(Br)cc21	27%
COc1ccc(C)cc1S(=O)(=O)N1CCN(c2cccc(Cl)c2)CC1	14%
CNC(=O)c1ccc(Nc2nnc(-c3ccc(C)c(S(=O)(=O)NC(C)(C)C)c3)c3ccccc23)cc1	3%
Cc1ccc2nc(COc3cccc(NC(=O)COc4ccc(F)cc4)c3)cc(=O)n2c1	-6%
CCCCn1cc(S(=O)(=O)c2ccc(C)c(C)c2)c(=O)c2cc(F)c(N(CC)CC)cc21	?
Cc1ccc(NC(=O)C(=O)NCc2ccco2)cc1	-50%
CCCCNC(=O)CCn1c(=O)c2ccccc2n(Cc2ccccc2C#N)c1=O	-5%
CCOC(=O)c1noc2ncnc(Nc3cc(Cl)c(OC)cc3OC)c12	0%
Cc1ccc(-c2nc3nc(C)cc(Nc4ccccc4O)n3n2)cc1	-26%
CCOc1ccc(NC(=O)CC2C(=O)N(c3cccc(C)c3)C(=O)N2Cc2cccs2)cc1 (centres undefined)	6%
N#Cc1ccc(OC(=O)c2cc(-c3ccc4c(c3)OCCO4)on2)cc1	-8%
COc1cccc(-c2noc(C3CC(=O)N(c4ccc(F)cc4)C3)n2)c1OC (centres undefined)	2%
COc1cc(-c2nc(-c3ccc4c(c3)[nH]c(=O)n4C)no2)cc(OC)c1OC	-2%
CCc1nnc(SC(CC)C(=O)Nc2cccc(OC)c2)c2cc3oc(C)cc3n12 (centres undefined)	-13%

# A draw from above in order of molar mass, smallest number first.
molecule	miR-21 FLuc
COc1ccc(C)cc1S(=O)(=O)N1CCN(c2cccc(Cl)c2)CC1	14%
COc1cc(-c2nc(-c3ccc4c(c3)[nH]c(=O)n4C)no2)cc(OC)c1OC	-2%
Cc1nnc(N2CCN(c3ccccc3)CC2)c2c1nnn2Cc1ccc(F)cc1	0%

# Reformatted with values ahead of the structure: part of the list above
miR-21 FLuc	Compound
-39%	CCOc1ccc(NC(=O)N(Cc2c[nH]c3ccccc23)C2CCCCCC2)cc1
-7%	COc1ccc(NC(=O)c2ccco2)cc1NC(=O)COc1cccc(C)c1C
-11%	Cc1[nH]c2ccc(C(=O)N3CCN(c4ccccc4F)CC3)cc2c1C
-45%	CCOc1ccc(NC(=O)c2ncoc2-c2ccco2)cc1
0%[7.66 µM]	COc1cc2c(cc1OC)C1O[C@](CCCCN3C(=O)c4ccccc4C3=O)(C2)OC2=C1C(=O)CCC2
27%	CCC1=Nc2cc(C(=O)NC3CCCC3)ccc2Sc2ccc(Br)cc21
14%	COc1ccc(C)cc1S(=O)(=O)N1CCN(c2cccc(Cl)c2)CC1

# (more compounds)
molecule	miR-21 FLuc
CC(Oc1ccc(F)cc1)C(=O)Nc1nc(-c2ccc(F)cc2)ns1 (centres undefined)	?
COc1cc(NC(=O)c2cc(Cl)ccc2Cl)ccc1NC(=O)c1cc2ccccc2o1	-17%
CC1CCC(NC(=O)C2(C)Cc3ccccc3C(=O)N2Cc2ccc(Cl)cc2)CC1 (centres undefined)	-4%
Cc1ccc(C)c(NC(c2ccccc2)c2nnc(-c3ccccc3F)o2)c1 (centres undefined)	24%
CCOC(=O)c1ccccc1NC(=O)c1cc2c(s1)-c1c(C)cccc1OC2	1%
O=C(NCCc1ccccc1)C(=O)NCC(c1ccco1)S(=O)(=O)c1cccs1 (centres undefined)	-3%
CCc1cccc(C)c1NC(=O)c1ccc2c(c1)CCN2S(=O)(=O)c1ccc(Cl)cc1	11%
CCOc1ccc(S(=O)(=O)Nc2ccc(OC)c(Cl)c2)c2cccnc12	9%
COc1ccc(-c2cc(C(F)(F)F)nc(-n3nc(C(F)(F)F)cc3C)n2)cc1	-3%
O=C(Nc1c(Cl)cccc1Cl)c1cc(-c2cccc(O)c2)on1	-8%
CCOc1ccc(S(=O)(=O)c2cn(Cc3ccc(C)cc3)c3ccc(OC)cc3c2=O)cc1	-4%
Cc1ccccc1NC(=O)CSc1nc2c(c(=O)n(C)c(=O)n2C)n1Cc1ccccc1F	0%
COCCn1c(=O)[nH]c2cc(C(=O)N3CCN(c4ccc(F)cc4)CC3)ccc2c1=O	12%
COc1ccc(CNC(=O)Cc2c(C)c3c(cc(C)c4c(C)coc43)oc2=O)cc1	5%
Cc1ccc(CNC(=O)CCc2c(C)c3cc4c(C)coc4cc3oc2=O)cc1	-14%
CCCn1c2ccccc2c2cnn(CC(=O)NCc3ccc(OC)cc3)c(=O)c21	-2%
CCOc1ccc(-c2cc3nc(C4CCN(C(=O)OC(C)(C)C)CC4)c(C(=O)Nc4cccc(Cl)c4C)cn3n2)cc1	13%
Cc1ccc(CNS(=O)(=O)c2cc(C(=O)Nc3cccc(C(F)(F)F)c3)ccc2F)cc1	?
CCOc1ccc2cc(-c3nnc(Nc4ccc(C)cc4)s3)c(=O)oc2c1	-5%
